Compound activity deposited in PubChem by several laboratories.
WNV protease inh: inhibitors of West Nile virus NS2B-NS3 protease | actives 0.18% (n = 65,000) | z-score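 (tested at a level between 10 and 100 µM)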 | WNV NS2B-NS3 protease, fluorogenic substrate Ex360/Em465; stronger effect = lower value;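 active = z-score at -3 or under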;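 note: score is relative to mean and spread of the compound wells of a plate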
Target sequence (P06935 1371-1501 limits assumed): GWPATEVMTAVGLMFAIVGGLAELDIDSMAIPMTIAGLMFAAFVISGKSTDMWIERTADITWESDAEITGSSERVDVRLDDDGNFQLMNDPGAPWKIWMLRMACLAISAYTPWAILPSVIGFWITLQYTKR
Target sequence (P06935 1502-1679 limits assumed): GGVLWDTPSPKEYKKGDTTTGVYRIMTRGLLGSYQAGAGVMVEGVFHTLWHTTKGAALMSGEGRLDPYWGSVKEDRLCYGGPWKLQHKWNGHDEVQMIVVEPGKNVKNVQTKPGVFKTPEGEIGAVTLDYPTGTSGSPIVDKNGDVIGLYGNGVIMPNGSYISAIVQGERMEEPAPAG
Hsc70: small molecules displacing fluorescent ligand from Hsc70 – biochemical, fluorescence polarization, primary screen (AID 568); 83,000 tested, under 10 active; displacement, % at 20 µM, or IC50 in µM where a hit was titrated; Hsc70 fluorescence polarization, probe displacement; higher % means a stronger effect; strong numbers were not always called active;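 active = displacement above 50% without optical interference and an IC50 on retest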;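 note: ATPase domain with a fluorescein-tagged ATP probe; 0% = vehicle and 100% = excess ADP; read after one hour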
MT1-MMP promoter: inhibitors of MT1-MMP promoter transcription, cell-based, luciferase reporter, luminescence (AID 618); MT1-MMP promoter luciferase reporter cells, luminescence; calls from a first round at 10 µM; hits with a dose series show EC50 in µM; actives 0.62% (n = 87,000);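 active = over half of the reporter light lost at 10 µM or EC50 under 50 µM; inactive = the rest and hits that failed the dose series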;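 note: actives suppress MT1-MMP promoter-driven transcription so potencies describe inhibitors; HT1080 fibrosarcoma cells; overnight exposure; toxic or luciferase-blocking compounds were not removed from the actives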
The depositor's hits bear a star; i = inactive; x = no result given.

SMILES	WNV protease inh	Hsc70	MT1-MMP promoter
CCc1ccccc1N(CC(=O)N1CCN(c2ccccc2F)CC1)S(C)(=O)=O	0.02	-5.4%	i
Cn1c(=O)cc(OCC(=O)NCCCN2CCN(c3ccccc3F)CC2)c2ccccc21	2.3	0.9%	i
CCCOn1c(OCC(C)C)nc2ccccc2c1=O	-0.17	-7.9%	i
O=C(CSc1ncnc2nc[nH]c12)N1CCN(c2ccccc2)CC1	-0.07	1.2%	i
Cc1c(-c2ccccc2)nc(N)c(C#N)c1-c1ccco1	-0.1	-4.8%	i
Cc1ccc(OCC(=O)O)c(-n2nc3ccccc3n2)c1	-0.23	5.8%	i
Cc1ccc(-c2nnc3c4ccccc4c(C)nn23)cc1S(=O)(=O)N1CCN(CCO)CC1	-0.91	-0.3%	i
CC(OC(=O)c1cccc(NS(C)(=O)=O)c1)C(=O)Nc1ccc(N2CCOCC2)cc1 (stereo not given)	0.94	2.9%	i
CCOc1ccc(NC(=O)C/C(N)=N/O)cc1	0.21	1.8%	i
O=C(NCc1ccccc1)C(c1cccnc1)N(Cc1ccco1)C(=O)c1ccccn1 (stereo not given)	-0.01	0.3%	i
CCOc1ccc2nc(SCC(=O)NC(=O)NCc3ccco3)[nH]c2c1	x	-1.9%	i
O=C(c1cnc2ccccn2c1=O)N1CCCc2ccccc21	-0.04	-1.9%	i
CC(=O)N1CCc2[nH]c3ccccc3c2C1	1.3	4.1%	i
CCOC(=O)c1c(NC(=O)c2cc(C3CC3)on2)sc(C(C)=O)c1C	-0.55	-0.3%	i
O=C(O)CN(c1ccccn1)S(=O)(=O)c1ccc(Cl)cc1	x	6.8%	i
CCOc1ccc(C2CC(c3ccc(CC)cc3)Nc3nc(N)nn32)cc1 (stereo not given)	1.6	1.0%	i
O=C(CCc1nc2ccccc2c(=O)[nH]1)NC1CCN(Cc2ccccc2)CC1	0.93	-3.2%	i
O=C1C2C3C=CC(C3)C2C(=O)N1c1ccccc1 (stereo not given)	1.5	3.2%	i
Cc1cc(C)c(-c2c(O)c3cccc4c3n(c2=O)CCC4)c(C)c1	x	-0.8%	i
Cc1cc(=O)n2nc(-c3ccc(C(F)(F)F)cc3)sc2n1	x	-2.3%	i
CCOC(=O)c1c(NC(=O)CSc2nnc(C)s2)sc2c1CCC(C)C2 (stereo not given)	x	-4.1%	i
CSc1nc2[nH]c3c(c2c2ncnn12)CCCC3	0.37	2.9%	i
O=C(Cn1ncn2cccc2c1=O)N1CCCCC1	-2.5	1.1%	i
CCOCCCNC(=O)c1cc2c(-c3ccc(Cl)cc3)nn(C)c2s1	-0.37	6.1%	i
O=C(NCc1cccnc1)c1ccc2c(=O)n(CCCN3CCCC3=O)c(=S)[nH]c2c1	0.81	8.1%	i
CC(Sc1ccc(Cl)cc1)C(=O)Nc1ccc2c(c1)OCO2 (stereo not given)	x	1.5%	i
CC(=O)c1oc2ccccc2c1N	-0.47	-1.1%	i
CNC(=O)CN(C#N)c1nc(N(C)C)nc(N(C)C)n1	0.55	-4.6%	i
Cc1cc2c(c(=O)n1C1CC1)C(c1cccc(Cl)c1)C(C#N)=C(N)O2 (stereo not given)	-0.43	-1.8%	i
O=C(NCCCO)c1nnc(Cc2c(F)cccc2Cl)o1	x	2.2%	i
O=C(CSc1nccn1-c1ccc(Cl)cc1)Nc1ccc2c(c1)OCO2	1.3	-1.8%	i
COC(=O)CSc1nnc(-c2cccnc2)n1-c1cc(OC)cc(OC)c1	-0.79	-4.2%	i
CC(=O)Nc1nonc1-c1nc2ccccc2n1Cc1ccccn1	-0.95	-4.0%	i
COc1ccc(C2CC(=O)c3cnc(N)nc3C2)c(OC)c1 (stereo not given)	-0.61	-5.6%	i
CCOC(=O)N1CCN(S(=O)(=O)c2ccc(F)c(C(=O)Nc3cc(C)cc(C)c3)c2)CC1	1.8	-2.1%	i
O=C(COC(=O)c1n[nH]c2ccccc12)NC(=O)NC1CCCCC1	0.83	-2.1%	i
O=C1CC(N2CCC(c3nc4ccccc4o3)CC2)C(=O)N1c1ccc(Cl)c(C(F)(F)F)c1 (stereo not given)	-0.63	0.6%	i
C=C(C)Cc1c(C)c(C#N)c2nc3ccccc3n2c1N1CCCCC1	x	-3.4%	i
CCOC(=O)c1ccc(-n2c(=S)sc3c(=O)[nH]c(C)nc32)cc1	-0.49	4.2%	i
CCC(=O)N(CCc1ccccc1)Cc1cc2cc3c(cc2[nH]c1=O)OCO3	x	4.1%	i
Cc1ccccc1-c1nc(Cc2ccccc2)no1	-0.83	4.5%	i
O=C(Cn1cnc2c(nnn2Cc2ccc(Cl)cc2)c1=O)OCc1ccccc1	-0.22	4.1%	i
CC1(C)C2(C#N)C(N)=NC3(OCCO3)C12C#N (stereo not given)	x	-6.3%	i
COC(=O)NC1CSCC1OC(=O)CN1C(=O)c2ccccc2C1=O (stereo not given)	-0.12	-3.0%	i
O=C(O)c1ccc(CSc2ncn[nH]2)cc1	-0.69	1.0%	i
O=C(O)C1C2C=CC(O2)C1C(=O)Nc1ccc(S(=O)(=O)N2CCc3ccccc32)cc1 (stereo not given)	-0.28	3.7%	i
CC(C)OC(=O)c1cn(-c2ccccc2)nc1-c1ccco1	0.77	-22%	i
COC(=O)Cn1c2c(c3cc(C)ccc31)CCCC2	-1.1	22%	i
CCOc1c(C(N)=O)c(-c2ccccc2)c2c(=O)[nH]c3ccccc3n12	-0.64	3.1%	i
CN(C)c1cc[nH]c(=O)c1C#N	x	2.6%	i
CN1c2ccccc2C(C)(C)C12C=Nc1c(ccc3ccccc13)O2 (stereo not given)	x	-3.9%	i
CCn1c(SCC(=O)NC(C)(C)C)nnc1-c1ccccn1	x	-2.2%	i
CCC(C)(NC(=O)c1ccccn1)C(=O)NC1CCCCC1 (stereo not given)	0.53	2.5%	i
CN1C(=O)CC(N2CCN(C(=O)c3ccccc3)CC2)C1=O (stereo not given)	x	-2.2%	i
CCS(=O)(=O)c1ccc(O)c(NC(=O)Nc2ccccc2)c1	-0.25	0.2%	i
COc1ccc(N(CC(=O)Nc2ccc3c(c2)OCO3)S(C)(=O)=O)c(OC)c1	-0.03	-8.7%	i
COC(=O)c1sccc1NC(=O)c1cc(C)on1	-1.9	4.7%	i
COc1ccc(OCCOC(=O)c2cccs2)cc1	0.91	4.2%	i
Fc1ccc(CN2CCCCCCC2)c(F)c1	-0.4	-0.9%	i
O=c1[nH]c2ccc(Cl)cc2c(-c2ccccc2)c1CN1CCOCC1	1.3	-2.5%	i

(more compounds)
SMILES	WNV protease inh	Hsc70	MT1-MMP promoter
Cc1cc(C)n(-c2ccc(OCC(=O)O)nn2)n1	-0.96	-8.0%	i
COC(=O)c1c(N)c2ccccc2[nH]c1=O	-0.35	-0.7%	i
CC(C)c1cc(C(=O)Nc2cc(Br)ccc2O)no1	x	-0.4%	i
COc1ccc(-c2nc(CC(=O)O)cs2)cc1OC	x	0.8%	i
CN(C)S(=O)(=O)N1CCN(C(=O)c2ccccc2)CC1	x	-0.1%	i
CCN(CC)S(=O)(=O)c1cc(C(=O)Nc2ccc(Cl)cn2)ccc1C	-1.2	-4.9%	i
COc1ccccc1OCC(=O)NCC1CCCCC1	0.54	-0.9%	i
Cc1ccc2nc(NC(=O)CN(C)S(=O)(=O)c3cccc4nsnc34)sc2c1	-0.16	-6.2%	i
CCC(=O)c1cc2c(C)cc(=O)oc2c(C)c1O	-1.1	0.5%	i
CSc1nc(O)c(C2OC(=O)c3ccccc32)c(=O)[nH]1 (stereo not given)	0.1	-2.7%	i
Cn1c(CSc2ccccc2)c(C#N)c2ccccc21	-0.21	10%	i
Cc1ccc(N=Cc2c(O)n(-c3cc(Cl)ccc3N3CCOCC3)c(=O)c3ccccc23)cc1C	x	0.7%	i
COc1cc2cnncc2cc1OC	x	1.1%	i
Cc1cccc(NS(=O)(=O)c2ccc(C3CCCCC3)cc2)n1	x	-4.2%	i
Cc1c(NC(=O)CN2CCN(C(=O)c3ccco3)CC2)c(=O)n(-c2ccccc2)n1C	x	3.5%	i

Part of the list above in a different format:
Cn1c(CSc2ccccc2)c(C#N)c2ccccc21
  WNV protease inh: -0.21
  Hsc70: 10%
  MT1-MMP promoter: i

COc1cc2cnncc2cc1OC
  WNV protease inh: x
  Hsc70: 1.1%
  MT1-MMP promoter: i

CCN(CC)S(=O)(=O)c1cc(C(=O)Nc2ccc(Cl)cn2)ccc1C
  WNV protease inh: -1.2
  Hsc70: -4.9%
  MT1-MMP promoter: i

Additional results:
SMILES	WNV protease inh	Hsc70	MT1-MMP promoter
CCCCC(C(=O)OCC(=O)c1ccc(OC)cc1)N1C(=O)c2ccccc2C1=O (stereo not given)	x	-3.7%	i
Cc1ccc(C)c(SCC(=O)NCc2ccco2)c1	x	-3.1%	i
CCCOc1ccc(-c2nnc(N)s2)cc1	-0.36	0.8%	i
Cc1nnc(Nc2ccc(C(=O)NCCO)cc2)c2ccccc12	1.1	0.0%	i
CCOC(=O)c1[nH]cnc1C(=O)NC1CCCCC1	-0.75	-0.7%	i
COc1cc(-n2cnnn2)ccc1S(=O)(=O)N1CCOCC1	-0.83	0.5%	i
O=S(=O)(Nc1ccc2c(c1)oc1ccccc12)N1CCCC1	0.86	0.8%	i
COc1ccc(CC(=O)Nc2ccc(-c3nnc(-c4ccccc4)o3)cc2)cc1OC	-0.24	-154%	i
O=C(CC1SCCNC1=O)Nc1cc(Cl)cc(Cl)c1 (stereo not given)	0.34	-0.8%	i
COC(=O)Cn1ncn2cccc2c1=O	0.84	0.9%	i
COc1ccccc1-c1noc(CCC(=O)Nc2ccccc2Cl)n1	0.71	1.5%	i
CCOC(=O)NC(Nc1ccc(S(N)(=O)=O)cc1)(C(=O)OCC)C(F)(F)F (stereo not given)	1.5	5.4%	i
Clc1ccc(C(c2nnnn2C2CCCCC2)N(Cc2cccnc2)Cc2ccco2)cc1 (stereo not given)	-1.2	0.7%	i
NC(=O)NC(c1ccccc1)c1cccc2ccccc12 (stereo not given)	x	2.5%	i
C=CCn1c(SCC(N)=O)nnc1-c1cc(Br)ccc1O	1.6	-4.3%	i

Retrieved by structure from the list above, seven records:
SMILES	WNV protease inh	Hsc70	MT1-MMP promoter
Cc1ccc(C)c(SCC(=O)NCc2ccco2)c1	x	-3.1%	i
O=C(CC1SCCNC1=O)Nc1cc(Cl)cc(Cl)c1 (stereo not given)	0.34	-0.8%	i
COC(=O)Cn1ncn2cccc2c1=O	0.84	0.9%	i
COc1ccc(CC(=O)Nc2ccc(-c3nnc(-c4ccccc4)o3)cc2)cc1OC	-0.24	-154%	i
Clc1ccc(C(c2nnnn2C2CCCCC2)N(Cc2cccnc2)Cc2ccco2)cc1 (stereo not given)	-1.2	0.7%	i
COc1ccccc1-c1noc(CCC(=O)Nc2ccccc2Cl)n1	0.71	1.5%	i
C=CCn1c(SCC(N)=O)nnc1-c1cc(Br)ccc1O	1.6	-4.3%	i

Other entries:
SMILES	WNV protease inh	Hsc70	MT1-MMP promoter
c1ccc2c(c1)nc1n2C2(N3CCOCC3)CCCC2C1N1CCOCC1 (stereo not given)	0.47	3.1%	i
COC(=O)c1c(C)oc2c1cc(NS(=O)(=O)c1cccs1)c1ccccc12	x	-7.1%	i
COc1cc2c(C#N)c(N3CCOCC3)nc(N)c2c(N)n1	2.3	-1.2%	i
CCNC(=S)N1CCN(CCN=CC2=C(O)CC(c3ccco3)CC2=O)CC1 (stereo not given)	x	-1.3%	i
CCCS(=O)(=O)C(=C1NCCO1)S(=O)(=O)CCC	0.15	4.1%	i
Cc1nnc(C)n1/N=C/C=C/c1ccccc1	1.2	-5.2%	i
O=C(Nc1ccccc1Cl)c1ccc2c(c1)N(Cc1ccc(F)cc1)C(=O)CS2=O (stereo not given)	-0.08	-3.8%	i
CCNC(=O)NC(=O)COC(=O)c1ccccc1SCC(=O)NC(=O)NCC	-0.59	2.8%	i
N=c1c(C(=O)NC2CCCC2)cc2c(=O)n3ccccc3nc2n1C1CCCC1	3.1	6.0%	i
COc1ccccc1C(=O)N1CCN(C(=O)COc2cccc(C)c2)CC1	-0.29	-5.1%	i
CCCOC(=O)Nc1ccccc1C(N)=O	0.04	3.2%	i
CC1CCc2nn(CC(=O)NCc3ccc(F)cc3)cc2C1 (stereo not given)	-0.51	-3.7%	i
CCOc1ccccc1N/C=C/C(=O)C(C)(C)C	-0.78	1.7%	i
Cc1ccc(-c2nnc(CSc3nncn3N)o2)cc1	-0.88	-0.2%	i
Cc1cc(=O)[nH]c(N2CCc3ccccc3C2)n1	x	0.1%	i
COc1ccc(C2(C(=O)O)CCCC2)cc1	0.44	-8.0%	i
CC1CN(C(=O)c2ccccc2)OC(c2ccc3c(c2)OCO3)O1 (stereo not given)	-0.9	-0.2%	i
CCN(CC)CCNc1nc2c(c(=O)[nH]c(=O)n2C)n1CC(O)COc1ccc(Cl)cc1Cl (stereo not given)	-0.98	-3.2%	i
Cc1c(CN2CCC(C)CC2)c(=O)n(-c2ccccc2)n1C	-0.7	-4.0%	i
CCOC(=O)c1c(NC(=O)Nc2ccccc2)sc(C)c1C	x	0.6%	i
Cn1c(=O)c2c(nc(Br)n2CCSc2ncccn2)n(C)c1=O	0.17	6.0%	i
CC12CC(NC(=O)N1Cc1ccccc1)c1ccccc1O2 (stereo not given)	2.2	-2.6%	i
c1ccc2c(c1)nc(N1CCOCC1)c1c3ccccc3[nH]c21	1.8	2.6%	i
O=c1cc(CN2CCN(c3ccccc3)CC2)c2cc(O)c(-c3ccccc3)cc2o1	-1.1	0.2%	i
